Screening data as filed in PubChem.
HPGD block = HPGD (human) dehydrogenase inhibition. P15428. purified HPGD, NADH fluorescence kinetic, PGE2 substrate. Potency, µM, for inactives: top-dose activity change, negative = inhibition, usual class: inhibitors. actives 4.3% (n = 150,000). AID 894; active = well fitted inhibition curve with a large enough effect (not every such curve was filed as active); inconclusive = small, poorly fitted or top-dose-only effect, or another doubt; inactive = no such curve, though single readings can be large or run the other way;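 note: top concentration of the series not given in the record; plate controls included wells without enzyme; inactives centre near -10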
Target sequence (P15428 whole entry, looked up): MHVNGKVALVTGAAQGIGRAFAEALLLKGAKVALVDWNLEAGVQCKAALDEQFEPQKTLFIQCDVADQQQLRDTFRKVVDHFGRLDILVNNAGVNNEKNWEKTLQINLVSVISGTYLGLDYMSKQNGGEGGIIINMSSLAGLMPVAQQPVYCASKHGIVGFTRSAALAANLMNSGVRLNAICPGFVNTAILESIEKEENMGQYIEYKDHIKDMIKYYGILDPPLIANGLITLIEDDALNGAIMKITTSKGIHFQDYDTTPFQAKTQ
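20 nM HPGD preincubated 15 min at room temperature with compound in 50 mM Tris-HCl pH 8, 0.01% Tween 20. Started with 1 mM NAD+ and 30 uM prostaglandin E2; NADH fluorescence (360/450 nm) read 5 times over 30-s intervals, last minus first.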
* = called active by the depositor. % is set by controls: 0 for no effect and ±100 for the full control effect; potency is the fitted concentration of half-maximal effect.

Cc1nn2c(c1-c1ccc(Cl)cc1)N=C(c1ccco1)CC2c1ccccc1 (stereo unspecified) was read as HPGD block -23%.
`O=C(O)c1ccncc1.O=C(O)c1ccncc1.[NH2-].[NH2-].[Pt]` gave HPGD block 0%.
Screening O=C(NCc1cccnc1)C(=O)NCC(c1ccco1)N1CCN(c2ccc(F)cc2)CC1 (stereo unspecified) returned HPGD block -14%.
`CN[C@H]1[C@@H](O[C@@H]2[C@H](O[C@@H]3[C@@H](O)[C@@H](O)[C@@H](N=C(N)N)[C@@H](O)[C@@H]3N=C(N)N)O[C@H](C)[C@@]2(O)C=O)O[C@@H](CO)[C@@H](O)[C@H]1O` gave HPGD block -4%.
N#Cc1ccc(C23CC4(C2)[C@H](CN(CC2CCCCC2)[C@@H]4c2ccccc2)C3c2ccccc2)cc1 (stereo partly specified) was read as HPGD block -3%.
O=C(Nc1ccccc1F)C1CCN(C(=O)Cc2ccccc2)CC1 was read as HPGD block -11%.
Screening Nc1nnc(SCC(=O)N2CCN(c3ccccc3)CC2)n1-c1ccccc1 returned HPGD block -7%.
COc1ccc(S(=O)(=O)NCc2csc(-c3cccnc3)n2)cc1 was read as HPGD block -6%.
Screening CCOC(=O)N1CCN(C(=O)c2ccc(Cl)c(S(=O)(=O)N3CCOCC3)c2)CC1 returned HPGD block -4%.
Screening Cc1cccc2cc3c(N)c(C(=O)N4CCc5ccccc54)sc3nc12 returned HPGD block -11%.
`N#CCCn1cc(/C=N/O)c(-c2ccc(F)cc2)n1` gave HPGD block -4%.
CCN(CC(=O)Nc1cccc(OC)c1)C(=O)c1ccc(C)s1 was read as HPGD block -9%.
For O=C(CNC(=O)c1cccc(F)c1)N/N=C/c1cc(Br)ccc1OC(=O)/C=C/c1ccco1 the results were HPGD block -16%.
For CN1CCN(c2ccc(NC(=O)COc3ccc(Cl)cc3Cl)cc2)CC1 the results were HPGD block -27%.
For CCOC(=O)C(C)(C)N(Cc1ccc(C)cc1)S(=O)(=O)c1ccc(Cl)c([N+](=O)[O-])c1 the results were HPGD block -15%.
`Cc1nn(C)c(C)c1/C=C/C(=O)c1ccccc1` gave HPGD block -28%.
COc1ccc(N2C(=O)/C(=C\c3ccco3)N=C2SCC(=O)NC(C)C)cc1Cl was read as HPGD block -19%.
`CCCNS(=O)(=O)c1ccc(CCC(=O)N2CCCCC2)cc1` gave HPGD block inconclusive.
For COCCn1c(=O)[nH]c2cc(C(=O)NCCN3CCN(c4ccc(OC)cc4)CC3)ccc2c1=O the results were HPGD block inconclusive.
For COCCn1nnnc1C(c1ccc2ncccc2c1)N1CCc2ccccc21 (stereo unspecified) the results were HPGD block -11%.
Screening C(#Cc1ccc(C#CCN2CCCC2)cc1)CN1CCCC1 returned HPGD block -12%.
For FC(F)(F)c1nnc2c(Sc3ccccc3)nc3ccc(Cl)cc3n12 the results were HPGD block -11%.
Screening O=C1N2CN(C(c3ccccc3)c3ccccc3)CN=C2SC1(CO)CO returned HPGD block -1%.
Screening C[C@@]12CCC(OC(=O)c3ccccc3)CC1CCc1ccccc12 (stereo partly specified) returned HPGD block -18%.
Screening Cc1cc(Nc2ccccc2)nc(N)n1 returned HPGD block -4%.
Cc1cccc(NC(=S)NC(=O)c2cc(-c3ccccc3)nc3ccccc23)c1 was read as HPGD block -19%.
COc1ccc(CCN(Cc2cccs2)S(=O)(=O)c2ccc(-n3cnnn3)cc2)cc1OC was read as HPGD block -7%.
For O=C(CS(=O)(=O)c1ccc2ccccc2c1)Nc1ccccc1Cl the results were HPGD block -1%.
Screening O=c1cc(CN2CCc3ccccc32)nc2sccn12 returned HPGD block -12%.
Screening Cc1ccc(S(=O)(=O)/N=C2/NC(=O)/C(=C\c3ccco3)S2)cc1 returned HPGD block -22%.
`CCCC(=O)Nc1ccccc1NC(=O)C1CCCCC1` gave HPGD block -9%.
`COc1ccc(NC(=O)N2CCc3nc(-c4ccc(OC)cc4C)c4c(c3C2)CO[C@@H](c2ccccc2)C4)cc1` gave HPGD block -6%.
`CCOC(=O)CCc1c(C)c(C#N)c2nc3ccccc3n2c1-n1ccnc1` gave HPGD block inconclusive.
`O=S(=O)(CCn1cccc1)CCn1cccc1` gave HPGD block -9%.
For Cn1c(CN2CCN(CC#N)CC2)c(C#N)c2ccccc21 the results were HPGD block -9%.
For CCN(CC)S(=O)(=O)c1ccc(OC)c(NC(=S)Nc2ccc(C)c(C)c2)c1 the results were HPGD block -7%.
For CCn1c(SCC(=O)c2ccc(NC(C)=O)c(OC)c2)nnc1-c1ccc(NS(C)(=O)=O)cc1 the results were HPGD block -19%.
For CCN1C(=O)CS/C1=N\c1nccs1 the results were HPGD block -13%.
For O=C(O)CCS(=O)(=O)c1nc(-c2cccs2)cc(C(F)(F)F)n1 the results were HPGD block inconclusive.
For Cc1ccc(Cc2nc(-c3cccnc3)no2)cc1 the results were HPGD block -16%.
`N#CCSc1nnc(CNc2cccc(Cl)c2)o1` gave HPGD block -8%.
`O=S(=O)(CCc1nc2ccccc2o1)c1ccc2ccccc2c1` gave HPGD block 4%.
COC(=O)c1c(-c2ccc(C)cc2)csc1NC(=O)c1c(-c2ccccc2)noc1C was read as HPGD block inconclusive.
For O=C(Nc1cccc(S(=O)(=O)N2CCOCC2)c1)[C@@H]1CCCN1S(=O)(=O)c1ccc(Cl)cc1 the results were HPGD block -13%.
O=C(CCNS(=O)(=O)c1cccc2nonc12)NCc1cccs1 was read as HPGD block -17%.
For COc1ccc(CC(=O)NN2C(=O)c3ccccc3C2=O)cc1 the results were HPGD block -10%.
`O=C(Cc1csc(-c2ccccc2)n1)NCc1ccccc1F` gave HPGD block inconclusive.
For Fc1ccc(-c2nnc(-c3ccc(Cl)cc3)o2)cc1 the results were HPGD block -20%.
Screening CCOC(=O)NC(NCCc1ccccc1)(C(F)(F)F)C(F)(F)F returned HPGD block -12%.
For Cc1cccc(Cc2c(C)nc3c(C(=O)NCc4ccco4)cnn3c2C)c1 the results were HPGD block inconclusive.
COc1ccc(OC)c(NC(=O)CC2SC(=Nc3ccc(F)cc3)N(CCC3=CCCCC3)C2=O)c1 (stereo unspecified) was read as HPGD block -20%.
C1=C(CCNCC2CCCCC2)CCCC1 was read as HPGD block -15%.
Brc1ccc2c(c1)c1cc(Br)ccc1n2CC1CO1 (stereo unspecified) was read as HPGD block -5%.
Screening CC(C)c1ccc(/C(C(=O)O)=C(\O)C(=O)O)cc1 returned HPGD block -16%.
CCn1c(SCC(=O)NCC2CCCO2)nc2cc(S(=O)(=O)N3CCCCC3)ccc21 (stereo unspecified) was read as HPGD block -13%.
Screening C=CCn1c(Br)nc2c1c(=O)[nH]c(=O)n2C returned HPGD block -17%.
Cc1nn(Cc2ccccc2)c(Cl)c1C(=O)OC1CCOC1=O (stereo unspecified) was read as HPGD block 16µM*.
`CCc1ccc(/C=N/NC(=O)c2ccc(OC3CCCC3)cc2)s1` gave HPGD block -20%.
Cc1ccc(CSc2nc3c(c(SCC(=O)O)n2)CCCC3)cc1 was read as HPGD block -27%.
For Cc1cc(C)n(-c2ccc3cccc(NS(C)(=O)=O)c3n2)n1 the results were HPGD block -7%.
N#Cc1nc(N2CCCC2)nc(N2CCCC2)n1 was read as HPGD block -1%.
N#Cc1nc(-c2ccc(OCc3ccccc3)cc2)oc1N1CCC(C(N)=O)CC1 was read as HPGD block inconclusive.
Screening O=C(Cc1ccccc1[N+](=O)[O-])NCCSCc1c(F)cccc1Cl returned HPGD block inconclusive.
`O=C(c1ccc(Br)cc1)N1CCN(S(=O)(=O)c2ccccc2)CC1` gave HPGD block -7%.
Screening COc1ccc(-c2nnc(SCc3ccccc3F)o2)cc1 returned HPGD block -10%.
Screening COc1cccc(-c2nn(-c3ccccc3)cc2/C=C(\C#N)C(=O)NCCCn2ccnc2)c1 returned HPGD block -13%.
`N/C(=N\OC(=O)c1ccc(F)cc1)c1nonc1N` gave HPGD block -5%.
For Cc1ccccc1OCc1nnc(SCC(=O)N2CCc3ccccc32)n1C the results were HPGD block -14%.
Screening COc1ccccc1NC(C#N)c1ccccc1OCc1ccccc1 (stereo unspecified) returned HPGD block -10%.
`COc1ccc(/C=N\NC(=O)C2C(=O)NCC2c2ccccc2)cc1O` (stereo unspecified) gave HPGD block -13%.
Cc1cc2n(n1)C(c1ccccc1)CC(c1ccc(Br)cc1)=N2 (stereo unspecified) was read as HPGD block -16%.
Screening O=C(CCCN1C(=O)c2ccccc2C1=O)OC1CSCC1NC(=O)c1ccccc1 (stereo unspecified) returned HPGD block -14%.
Screening CSc1ccccc1NC(=O)c1cc(C)on1 returned HPGD block -11%.
`Cc1[nH]c2c(C)cccc2c1CCNC(=O)C1CCCCC1C(=O)OCC(F)(F)F` (stereo unspecified) gave HPGD block -10%.
COc1cc(OC)cc(-n2nc(C(=O)NCCCN3CCOCC3)c3ccccc3c2=O)c1 was read as HPGD block -11%.
For COC(=O)C(Cc1ccccc1)NC(=O)C(CC(C)C)NC(=O)OC(C)(C)C (stereo unspecified) the results were HPGD block -3%.
CCCn1cc(SCC(=O)NCC2CCCO2)c2ccccc21 (stereo unspecified) was read as HPGD block inconclusive.
`CCOc1ccccc1OCC(=O)Nc1ccc(S(=O)(=O)Nc2nc(C)cc(C)n2)cc1` gave HPGD block -8%.
`O=P(c1ccccc1)(c1ccccc1)C(O)c1ccco1` (stereo unspecified) gave HPGD block -20%.
COc1ccc(OC)c(-c2cc(C(=O)N3CCc4ccccc4C3)no2)c1 was read as HPGD block inconclusive.
`Cc1[nH]nc2c1C(c1cn[nH]c1-c1ccc(F)cc1)C(C#N)=C(N)O2` (stereo unspecified) gave HPGD block -10%.
`CCOC(=O)N1CCN(CC(=O)n2c(C)c(C)c3ccccc32)CC1` gave HPGD block -2%.
Screening O=C1CC(c2cccc(Br)c2)C2=C(CCCC2=O)N1 (stereo unspecified) returned HPGD block inconclusive.
For Cc1ccccc1C(=O)NCC(=O)NNC(=S)NC(=O)c1ccccc1 the results were HPGD block -19%.
`CN(C)CCNc1oc(COc2ccc(Cl)cc2)nc1C#N` gave HPGD block 0%.
Screening Cc1ccc2[nH]c(-c3ccccc3)c(CN(C)C)c(=O)c2c1 returned HPGD block inconclusive.
COc1cccc(Cn2c(C3CC3)nc3ccc(NC(=O)c4ccco4)cc3c2=O)c1 was read as HPGD block -7%.
Screening CCn1c(SCC(=O)Nc2cc(C)on2)nnc1-c1ccccc1 returned HPGD block 1%.
`Cc1cccc(C(=O)Oc2ccccc2C2C[C@]3(C)CC(=O)NC3N2C(=O)c2cccc(C)c2)c1` (stereo partly specified) gave HPGD block 0%.
COc1cccc(CC(NC(C)=O)C(=O)NC2CCN(S(=O)(=O)c3ccc4ccccc4c3)CC2)c1 (stereo unspecified) was read as HPGD block 3%.
For CCCC(=O)n1nc(-c2ccccc2)nc1SC the results were HPGD block -15%.
For O=C(c1ccncc1)N1CCC2(CCCN(Cc3ccncc3)C2)CC1 the results were HPGD block 1%.
`Cn1c(=O)oc2cc(S(=O)(=O)NC(Cc3ccccc3)C(=O)N3CCCCC3)ccc21` (stereo unspecified) gave HPGD block -6%.
COc1ccc(-c2c3c(=O)n(C)c(=O)n(C)c3cn2-c2ccccc2)cc1 was read as HPGD block -12%.
Screening CCOC(=O)c1cc2cc(F)ccc2nc1C returned HPGD block 0%.
For CCCCc1cc(=O)oc2cc(C)cc(OC(C)C(=O)O)c12 (stereo unspecified) the results were HPGD block inconclusive.
For O=C1NC2(CCc3ccccc32)C(=O)N1CCOc1ccc(Cl)cc1 (stereo unspecified) the results were HPGD block inconclusive.

Not all compounds are listed, so the mix of outcomes need not match the whole.
